# Screening data as filed in PubChem BioAssay.
# Shh pathway inh: Hedgehog pathway signaling inhibitors, primary screen, luminescence, Shh-LIGHT2 cells, Gli-luciferase | Shh-LIGHT2 Gli-luciferase reporter, 30 h | inhibition, % (no concentration beside the values) | hit rate 2.1% among 22,000 | AID 2313, 2010;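 active = replicate mean of 65% or more; inconclusive = mean lower but half the replicates past it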;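 also: pathway switched on by Shh-conditioned medium diluted 1 in 25 in low serum; 100 nL library stock added to about 40 µL; 0% = median of neutral wells and 100% = positive control level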
# PD-1 reversal: activators reversing PD-1 mediated T-cell inhibition, primary screen, luminescence, primary human CD4 T cells, PD-L1 beads; 29,000 tested, under 10 active; activation, % (test concentration not listed); CellTiter-Glo 96 h;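 active = replicate mean of 50% or more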;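 also: 0% = median vehicle wells and 100% = positive control; 100 nL library stock added to about 50 µL; numbers are from one replicate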
# MITF inhib: inhibitors of MITF, primary screen, MITF inhibitor project, cell-based, luminescence; TRPM1 promoter luciferase, 24 h; inhibition, % (test concentration not listed); hit rate 0.28% among 37,000; AID 2240, 2010;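 active = most replicates at 85% or more, or half of them and the mean; inconclusive = half reach 85% but not the mean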;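 also: human melanocyte line stably carrying TRPM1 promoter luciferase reporter; 0% = vehicle wells and 100% = a positive control; the first replicate is given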
# YB-1 expression: inhibitors of YB-1 gene expression, primary screen, cell-based, fluorescence; U2OS, qRT-PCR YB-1 vs CDIP delta delta Cp, 16 h; hits give high values; zero = DMSO, each unit about twofold; delta delta Cp (YB-1 minus CDIP) (concentration not given with the values); hit rate 0.37% among 30,000; AID 434959, 2010;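 active = delta delta Cp rounded down to an integer at or above 3, about 3 SD of DMSO wells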;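 also: higher means less YB-1 transcript or more CDIP transcript relative to DMSO; stock transfer was 100 nL into about 100 µL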
# * marks the source's active call; other numbers are inactive results; ? = inconclusive; . = not tested or not shown. Not all compounds are listed (hit frequency here may not be typical).
SMILES,Shh pathway inh,PD-1 reversal,MITF inhib,YB-1 expression
C[C@@H]1CCCCO[C@@H](CN(C)C(=O)CCC(F)(F)F)[C@@H](C)CN([C@H](C)CO)C(=O)c2cc(NC(=O)C3CCCCC3)ccc2O1,-29,2.9,-20,-0.093
O=C(NCCO)c1cc[n+](CC(=O)c2cccs2)cc1,.,0.5,0,-0.45
C[C@@H]1CN([C@H](C)CO)C(=O)c2cc(NC(=O)Nc3cccc4ccccc34)ccc2O[C@H]1CN(C)S(=O)(=O)c1ccc(F)cc1,16,0.4,-8,0.12
Cc1nn(-c2ccccc2)c(C)c1Sc1n[nH]c(=O)[nH]c1=O,-20,0.1,-3,-0.4
OC(CNC1CCCC1)Cn1c2ccccc2c2ccccc21 (stereo not given),.,-13,19,.
C[C@@H]1CCCCO[C@@H](CN(C)CC2CC2)[C@@H](C)CN([C@H](C)CO)C(=O)c2cc(NC(=O)Nc3ccccc3)ccc2O1,-12,1.5,13,0.15
C[C@@H]1CN([C@@H](C)CO)C(=O)c2cccc(NS(C)(=O)=O)c2O[C@@H]1CN(C)S(C)(=O)=O,0,1.8,-11,-0.14
CNC[C@H]1Oc2ccc(NS(=O)(=O)c3cccs3)cc2CC(=O)N([C@H](C)CO)C[C@H]1C,-13,.,-4,0.31
COc1ccc(S(=O)(=O)NCc2ccco2)c(Cl)c1Cl,.,0.3,-15,.
C[C@H]1CN([C@@H](C)CO)C(=O)c2cccc(NS(=O)(=O)c3ccc(F)cc3)c2O[C@H]1CN(C)Cc1ccc2c(c1)OCO2,17,0.0,-10,0.23
CCOC(=O)CSc1nnc(-c2ccc(OC)cc2)n1-c1ccccc1C,.,-1.2,-18,.
CSc1scc2c1-c1nn(C(=O)c3ccc(Cl)cc3)cc1CC2,53,-1.9,-2,0.085
COc1ccc(S(=O)(=O)N(C)C[C@@H]2Oc3ccc(NS(=O)(=O)c4ccccc4)cc3CC(=O)N([C@H](C)CO)C[C@H]2C)cc1,10,-0.7,2,0.12
C[C@@H]1O[C@@H](O[C@@H]2[C@@H](O)[C@H](OC(=O)[C@]34CCC(C)(C)CC3C3=CCC5[C@@]6(C)CC[C@H](OC7OC(CO)C(OC8OCC(O)C(O)C8O)C(O)C7O)C(C)(C)C6CC[C@@]5(C)[C@]3(C)CC4O)O[C@H]2CO)[C@H](O)[C@H](O)[C@H]1O[C@H]1OC[C@](O)(CO)[C@H]1O (stereo not given in full),?,-13,14,0.39
C[C@@H]1CN([C@@H](C)CO)C(=O)c2cccc(NS(=O)(=O)c3ccc(F)cc3)c2O[C@H]1CN(C)Cc1ccc(-c2ccccc2)cc1,9,0.1,1,0.13
C[C@H](CO)N1C[C@H](C)[C@@H](CN(C)CC2CC2)Oc2c(NC(=O)C3CC3)cccc2C1=O,1,0.5,-7,-0.28
C[C@H](CO)N1C[C@H](C)[C@@H](CN(C)C(=O)NC2CCCCC2)Oc2c(NC(=O)Nc3ccc(C(F)(F)F)cc3)cccc2C1=O,-44,-2.2,-6,-0.14
COc1ccc(NC(=O)N(C)C[C@@H]2Oc3ccc(NS(=O)(=O)c4ccc(OC)cc4)cc3CC(=O)N([C@H](C)CO)C[C@@H]2C)cc1,-34,1.7,11,0.25
C[C@H]1CN([C@@H](C)CO)C(=O)c2cccc(NC(=O)Nc3ccc4c(c3)OCO4)c2O[C@@H]1CN(C)S(=O)(=O)c1cccs1,6,0.3,-37,-0.16
COc1ccc(NC(=O)N(C)C[C@H]2Oc3ccc(NC(=O)Nc4ccc(C(F)(F)F)cc4)cc3CC(=O)N([C@@H](C)CO)C[C@H]2C)cc1,.,.,48,-0.75
CCOC(=O)c1c(NC(=O)c2ccc(S(=O)(=O)N3CCOCC3)cc2)sc(C(C)=O)c1C,.,-1.5,-1,.
CC(C)c1ccc(CNC(=O)CCc2ccccc2)cc1,.,0.5,-1,-0.4
C[C@H]1CN([C@@H](C)CO)C(=O)c2cccc(NC(=O)c3nc4ccccc4s3)c2O[C@H]1CN(C)Cc1ccc(Cl)c(Cl)c1,-25,-1.1,8,-0.34
C[C@@H]1CN([C@H](C)CO)C(=O)Cc2cc(NC(=O)NC3CCCCC3)ccc2O[C@@H]1CN(C)Cc1ccccc1,19,-0.9,11,0.33

# Shown as tab-separated lines: entries from further up
Structure	Shh pathway inh	PD-1 reversal	MITF inhib	YB-1 expression
C[C@@H]1CN([C@H](C)CO)C(=O)c2cc(NC(=O)Nc3cccc4ccccc34)ccc2O[C@H]1CN(C)S(=O)(=O)c1ccc(F)cc1	16	0.4	-8	0.12
Cc1nn(-c2ccccc2)c(C)c1Sc1n[nH]c(=O)[nH]c1=O	-20	0.1	-3	-0.4
OC(CNC1CCCC1)Cn1c2ccccc2c2ccccc21 (stereo not given)	.	-13	19	.
C[C@@H]1CCCCO[C@@H](CN(C)CC2CC2)[C@@H](C)CN([C@H](C)CO)C(=O)c2cc(NC(=O)Nc3ccccc3)ccc2O1	-12	1.5	13	0.15
C[C@@H]1CN([C@@H](C)CO)C(=O)c2cccc(NS(C)(=O)=O)c2O[C@@H]1CN(C)S(C)(=O)=O	0	1.8	-11	-0.14
CNC[C@H]1Oc2ccc(NS(=O)(=O)c3cccs3)cc2CC(=O)N([C@H](C)CO)C[C@H]1C	-13	.	-4	0.31
COc1ccc(S(=O)(=O)NCc2ccco2)c(Cl)c1Cl	.	0.3	-15	.
C[C@H]1CN([C@@H](C)CO)C(=O)c2cccc(NS(=O)(=O)c3ccc(F)cc3)c2O[C@H]1CN(C)Cc1ccc2c(c1)OCO2	17	0.0	-10	0.23
CCOC(=O)CSc1nnc(-c2ccc(OC)cc2)n1-c1ccccc1C	.	-1.2	-18	.

# The list goes on:
SMILES,Shh pathway inh,PD-1 reversal,MITF inhib,YB-1 expression
Cc1ccc(S(=O)(=O)Nc2ccc3c(c2)C(=O)N([C@@H](C)CO)C[C@@H](C)[C@@H](CN(C)S(=O)(=O)c2ccc(C)cc2)O3)cc1,4,-1.0,13,0.048
C[C@@H]1CN([C@H](C)CO)C(=O)Cc2cc(NC(=O)Nc3ccc(F)cc3)ccc2O[C@@H]1CN(C)S(=O)(=O)c1ccc(Cl)cc1,26,-1.8,24,0.34
C=CCn1c(NCc2cc(C)ccc2O)nc2ccccc21,.,-1.1,-34,.
C[C@H](CO)N1C[C@H](C)[C@H](CN(C)S(=O)(=O)c2cn(C)cn2)Oc2ccc(NC(=O)Cc3ccccc3)cc2CC1=O,12,.,-8,-0.091
COC(=O)C1=C(C)NC(=O)NC1c1ccccc1OCC(=O)Nc1ccc(C)cc1 (stereo not given),.,-0.5,-12,.
CC(C)NC(=O)Nc1ccc2c(c1)C(=O)N([C@H](C)CO)C[C@H](C)[C@@H](CN(C)Cc1ccc(Oc3ccccc3)cc1)O2,1,0.6,9,0.2
CCCn1c(C)cc(C)c(C#N)c1=O,.,2.9,2,-0.089
C[C@H](CO)N1C[C@H](C)[C@@H](CN(C)Cc2ccccc2)Oc2c(NC(=O)Nc3ccccc3)cccc2C1=O,-42,-2.1,-1,0.31
CNC[C@@H]1Oc2ccc(NS(=O)(=O)c3cccs3)cc2C(=O)N([C@@H](C)CO)C[C@@H]1C,.,0.0,3,-0.16
Cc1noc(C)c1S(=O)(=O)Nc1ccc2c(c1)C(=O)N([C@@H](C)CO)C[C@H](C)[C@H](CN(C)Cc1ccc(C(=O)Nc3ccccc3N)cc1)O2,.,-2.6,17,-0.22
O=C(CSc1nc2ccc([N+](=O)[O-])cc2s1)Nc1ccc(Br)cc1Cl,.,2.5,15,.
CCCCCCCCC[C@@H](O)CC(=O)CCc1ccc(O)c(OC)c1,-13,1.1,2,-0.13
C[C@@H]1CCCCO[C@H](CN(C)C(=O)c2ccccc2)[C@@H](C)CN([C@H](C)CO)C(=O)c2cc(NC(=O)CCC(F)(F)F)ccc2O1,-16,-1.0,-10,-0.56
Cc1nn(C(C)C(=O)NCC2CCCO2)c(C)c1[N+](=O)[O-] (stereo not given),.,2.0,-8,.
CC(C)NC(=O)Nc1ccc2c(c1)C(=O)N([C@@H](C)CO)C[C@H](C)[C@@H](CN(C)Cc1ccc(C(=O)O)cc1)O2,.,0.0,-3,-0.14
COc1ccc(S(=O)(=O)N(C)C[C@@H]2Oc3ccc(NC(=O)Nc4ccccc4)cc3C(=O)N([C@@H](C)CO)C[C@@H]2C)cc1,18,1.2,-13,-0.075
CS(=O)(=O)N(CC(=O)NC1CCCCCC1)c1ccc(I)cc1,.,0.7,-103,.
CSc1ccccc1NC(=O)Cn1ccc([N+](=O)[O-])n1,.,-0.4,-20,.
C[C@@H]1CN([C@@H](C)CO)C(=O)c2cc(NC(=O)c3ccncc3)ccc2O[C@H]1CN(C)C(=O)Nc1cccc2ccccc12,-17,.,7,0.24
COc1ccc(S(=O)(=O)N(C)C[C@H]2Oc3ccc(NC(=O)Cc4ccccc4)cc3C(=O)N([C@H](C)CO)C[C@H]2C)cc1,20,0.6,-4,0.11
O=C(O)c1c(O)cc(OC2OC(CO)C(O)C(O)C2O)cc1/C=C/c1ccccc1 (stereo not given),-24,2.0,0,-0.5
C[C@H]1CN([C@@H](C)CO)C(=O)Cc2cc(NC(=O)CCCCCC(=O)Nc3ccccc3N)ccc2O[C@H]1CN(C)S(=O)(=O)c1cn(C)cn1,.,1.7,-14,-0.26
Cc1noc(C)c1NC(=O)N(C)C[C@@H]1Oc2c(NC(=O)C3CCOCC3)cccc2C(=O)N([C@H](C)CO)C[C@@H]1C,-37,0.4,-5,1.1
Cc1cccc(C(=O)Nc2cc(C)ccc2NC(=O)COc2ccccc2)c1,.,-0.9,1,.
COc1ccc(NC(=O)N(C)C[C@@H]2Oc3c(NC(=O)c4cnccn4)cccc3C(=O)N([C@@H](C)CO)C[C@@H]2C)cc1,-9,1.2,-14,-0.14
Cc1ccc(-n2nnnc2SCC(=O)c2ccc(O)c(O)c2)cc1,.,-0.5,0,.
C[C@@H]1CN([C@H](C)CO)C(=O)Cc2cc(NC(=O)Cc3ccccc3)ccc2O[C@@H]1CN(C)Cc1ccc(-c2ccccc2)cc1,-15,-9.1,18,0.28
C[C@@H]1CN([C@@H](C)CO)C(=O)c2cc(NC(=O)C3CC3)ccc2O[C@@H]1CN(C)Cc1ccncc1,.,1.8,-9,-0.11
C[C@@H]1CN([C@H](C)CO)C(=O)c2cccc(NC(=O)CCCCCC(=O)Nc3ccccc3N)c2O[C@H]1CN(C)CC1CC1,.,0.2,13,0.15
O=C(COc1ccc(Cl)cc1)Nc1ccc2nn(-c3ccc(F)cc3)nc2c1,.,-0.3,-100,.
O=C1C=C(c2ccc(Br)cc2)OC(=O)C1C(=O)c1ccc(Br)cc1 (stereo not given),.,0.0,-21,-0.82
CC(C)NC(=O)N(C)C[C@@H]1Oc2ccc(NC(=O)NC3CCCCC3)cc2C(=O)N([C@H](C)CO)C[C@@H]1C,0,1.7,-2,-0.19
Cc1ccc(S(=O)(=O)Nc2cccc3c2O[C@H](CN(C)C(=O)Nc2ccc(C(F)(F)F)cc2)[C@@H](C)CN([C@H](C)CO)C3=O)cc1,?,-0.7,4,-0.2
CC(=O)c1ccc(NC(=O)CSc2nnc(N)s2)cc1,.,-4.9,-58,.
C[C@@H]1CN([C@H](C)CO)C(=O)c2cccc(NC(=O)Nc3cccc4ccccc34)c2O[C@H]1CN(C)S(=O)(=O)c1ccc(Cl)cc1,11,-2.4,-2,-0.39
C[C@H](CO)N1C[C@H](C)[C@H](CN(C)C(=O)NC2CCCCC2)Oc2ccc(NC(=O)c3ccncc3)cc2C1=O,.,5.4,-23,-0.46
Cc1sc2ncnc(SCC(=O)c3ccc(Cl)c(Cl)c3)c2c1C,.,0.6,-26,.
C[C@H](CO)N1C[C@H](C)[C@H](CN(C)Cc2ccc(-c3ccccc3)cc2)Oc2c(NC(=O)c3nc4ccccc4s3)cccc2C1=O,-10,-2.0,-2,-0.27
COc1cc(NC(=O)CCC(=O)O)ccc1NC(C)=O,.,0.9,12,.
Nc1cc(=O)[nH]c(=O)n1-c1ccc(Cl)cc1,-11,0.6,-4,-0.14
C[C@H]1CN([C@@H](C)CO)C(=O)c2cc(NC(=O)Nc3ccc(F)cc3)ccc2O[C@@H]1CN(C)S(=O)(=O)c1cn(C)cn1,0,2.7,-2,0.083
C[C@@H]1CN([C@H](C)CO)C(=O)Cc2cc(NS(=O)(=O)c3ccccc3)ccc2O[C@H]1CN(C)Cc1ccc2c(c1)OCO2,-11,-0.2,-10,0.26
C[C@H](CO)N1C[C@H](C)[C@@H](CN(C)C(=O)Nc2ccc(F)cc2)Oc2ccc(NS(=O)(=O)c3cccs3)cc2C1=O,-19,-1.6,-1,0.11
COC1=CC(C)c2c(c(OC)c3occ(C)c3c2C)C1=O (stereo not given),6,-7.8,-7,0.12
C[C@H]1CN([C@@H](C)CO)C(=O)c2cccc(NS(=O)(=O)c3cn(C)cn3)c2O[C@@H]1CN(C)Cc1ccccc1,6,-0.4,-1,0.074
